# AID504770: growth inhibitors of E. coli YBA685 in a screen for V. cholerae RctB (chromosome II replication) inhibitors; E. coli YBA685 rctB-dependent plasmid, OD600 growth, 3 h; hits give low values; 130,000 compounds, 0.27% hits; z-score (test concentration not listed);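 active means z-score under -2 on both plates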;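 further: wells of about 30 µL received 100 nL stock; score is relative to mean and SD of the test wells; the first replicate is given; strong numbers were not always called active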
# Ba CapD inh: inhibitors of Bacillus anthracis CapD enzyme. z-score (test concentration not listed). purified CapD enzyme, fluorescence intensity read-out; hits give low values; some hits fall short of the stated cut. AID 492967. 140,000 compounds, 0.23% hits;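 active means z-score under -4 in either of two replicates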;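 further: stock transfer was 100 nL into about 40 µL; score is relative to mean and spread of the plate; one replicate is shown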
# An asterisk follows results filed as active; i = inactive; . = no result given; & = joins results of further samples. Rows are unselected (roughly 0.39% active in at least one column).
mol,Ba CapD inh,AID504770
CC1=C(C#N)C(NC(=O)c2ccncc2)(C(F)(F)F)C(=O)N1 (stereo not given),-0.16,-0.65
O=C(/C=C/c1ccccc1)N1CCC(N(C2CC2)S(=O)(=O)c2ccc(Cl)cc2)CC1,-0.5,.
Cc1nn(-c2nc3ccccc3[nH]2)c(=O)c2ccccc12,2.8,.
O=C(O)CCN1CCc2ccccc21,0.88,.
CCOC(=O)/C(C#N)=N\Nc1cc(C)cc(C)c1,.,3.7
CC(C)(C)C/C(=N/O)c1ccccc1,.,0.45
O=C(CSc1ccccc1Cl)Nc1ccc(N2CCOCC2)cc1,-0.3,0.25
O=C(CSc1nnc2c(n1)CCCC2)c1ccc2c(c1)OCCO2,.,-0.5
O=C(O)CCCN1C(=O)CCC1=O,.,-0.6
Cc1ccc(NC(=O)N2Cc3cccn3-c3cccnc32)c(C)c1,14,0.45
COc1ccc(Cn2c(-c3ccc(Cl)cc3)ccc(C#N)c2=O)cc1,2.4,.
Cc1cccc(N2CCN(C(=O)Cn3c(=O)[nH]c4ccsc4c3=O)CC2C)c1 (stereo not given),0.7,-0.35
N#C/C(=C\Nc1cccnc1)S(=O)(=O)c1ccc(Cl)cc1,-1.2,.
CN(C(=O)C1CC1C(=O)O)C1CCN(Cc2c(F)cccc2Cl)C1 (stereo not given),0.23,.
COc1cc(C=Nc2c(C)n(C)n(-c3ccccc3)c2=O)cc(OC)c1OC(C)=O,-0.25,.
CC(=O)c1sc2ccc(C)cc2c1C,-0.96,.
CN(C)c1nc(SCCOC(=O)c2ccccc2)nc(N(C)C)n1,-0.5,.
c1ccc2[nH]c(NC3=NCCCCC3)nc2c1,.,-0.4
Cc1ccc(S(=O)(=O)c2nc(S(C)(=O)=O)sc2N(C)C)cc1,-0.63,-0.6
S=c1[nH]nc(-c2ccccc2)n1CC1CCCO1 (stereo not given),0.095,-1.1
CCC(Sc1nc2c(sc3ccccc32)c(=O)n1CCc1ccccc1)C(=O)N1CCOCC1 (stereo not given),0.55,1.3
CC(=O)Nc1cccc(C2=Nc3ccccc3SC(c3ccccc3)C2)c1 (stereo not given),0.3,-0.7
CSc1ncc(C(=O)NNC(=O)OCC2(c3ccc(Cl)cc3)CC2)n1C,-0.99,.
O=C(c1cccc(C(F)(F)F)c1)N1CC(=O)N(CCc2ccccc2)C(=O)C1,-0.31,-0.7
Cc1ccc2[nH]c3c(c2c1)C[N+](C)(Cc1ccccc1)CC3 (stereo not given),0.035,.
CC1(C)N=C(c2ccccc2)C(=O)N1CC(=O)Nc1ccccc1,37,-0.55
COc1ccccc1CCOC(=O)NC(CCCNC(=O)OCc1ccccc1)C(=O)OCc1ccccc1 (stereo not given),-0.2,.
CC(C)CN(C(=O)c1ccncc1)c1nc2ccccc2s1,.,-0.55
NS(=O)(=O)c1ccc(CCNC(=O)c2ccc(Cn3c(=O)[nH]c4ccccc4c3=O)cc2)cc1,-0.89,0.05
Cc1cc2occ(CC(=O)N(C)C)c2cc1Cl,0.16,-1.1
CC1(C(=O)c2ccccc2)C2c3cc(Br)ccc3OC(=O)C21C(=O)N1CCCCC1 (stereo not given),7.8,0.2
CC(C)(C)OC(=O)NCCCCCNS(=O)(=O)c1ccc2c(c1)CN(C(=O)C(F)(F)F)CC2,0.42,.
Nc1nc(C2COc3ccccc3O2)ncc1S(=O)(=O)c1ccccc1 (stereo not given),-0.97,2.1
Clc1ccccc1-c1ncc2ccccn12,27,-0.85
N#CCCN(Cn1nnc2ccccc21)c1ccccc1,0.085,0.2
O=C(N/N=C/c1cc2ccccc2o1)c1cccc(F)c1,2.2,.
CN(C)c1nc(OC(C(F)(F)F)C(F)(F)F)nc(N(c2ccccc2)c2ccccc2)n1,-0.14,1.5
O=C(O)c1ccccc1-c1c2cc(Br)c(=O)cc-2oc2[c]([Hg])c(O)c(Br)cc12,0.22&-3.9,0.05
CCN(CC)CCCNc1nc2ccccc2[nH]1,0.31,-0.2
CC(C)(C)NC(=O)CSc1ncnc2c1cnn2-c1ccccc1,.,-1.1
NS(=O)(=O)c1ccc2c3c(cccc13)C(=O)N2,34,1.6
O=C(NNC(=O)c1ccccc1-n1cccc1)OCc1ccccc1Br,0.85,.
O=C1N=C(N2CCN(C3=NC(=O)/C(=C/c4ccc5c(c4)OCO5)S3)CC2)S/C1=C\c1ccc2c(c1)OCO2,5.9,.
O=C(O)CN1C(=O)c2cccc3cccc1c23,-0.7,1.5
COc1cccc(NC2(c3nnnn3-c3ccc(C)cc3)CCCC2)c1,-0.34,.
COc1ccc(Nc2nc3c(C)cccn3c(=O)c2C=NCc2ccccc2)cc1,-0.68,-1
CC(=O)N1CCC(N(C(=O)Nc2cccc(Br)c2)C(C)C)CC1,-0.02,-0.3
Cc1cc(N(C)C)n2nc(Cc3ccccc3)nc2n1,0.31,-0.8
Brc1ccc(CSc2ccc(-c3ccco3)nn2)cc1,.,-0.15
COc1ccc2nc(NC(=O)c3ccc(S(=O)(=O)N4CCc5ccccc5C4)cc3)sc2c1,-0.1,.

# Quoted at random: 7 entries already listed.
mol,Ba CapD inh,AID504770
O=C(O)CCN1CCc2ccccc21,0.88,.
CC(=O)c1sc2ccc(C)cc2c1C,-0.96,.
CCC(Sc1nc2c(sc3ccccc32)c(=O)n1CCc1ccccc1)C(=O)N1CCOCC1 (stereo not given),0.55,1.3
CN(C)c1nc(OC(C(F)(F)F)C(F)(F)F)nc(N(c2ccccc2)c2ccccc2)n1,-0.14,1.5
CC(=O)N1CCC(N(C(=O)Nc2cccc(Br)c2)C(C)C)CC1,-0.02,-0.3
CC(C)(C)OC(=O)NCCCCCNS(=O)(=O)c1ccc2c(c1)CN(C(=O)C(F)(F)F)CC2,0.42,.
NS(=O)(=O)c1ccc2c3c(cccc13)C(=O)N2,34,1.6

# Carrying on.
mol,Ba CapD inh,AID504770
CC(=O)Nc1cccc2nsnc12,-0.29,-0.5
CC1Cc2ccccc2N1C(=O)/C=C/c1cccs1 (stereo not given),.,-0.15
CCN(C(=O)C1CCCN1S(=O)(=O)c1ccc2c(c1)n(C)c(=O)c(=O)n2C)c1ccccc1 (stereo not given),2.9,1.6
NC(=O)c1nn(CC(=O)N2CCCC2c2ccc3c(c2)OCCCO3)c(=O)c2ccccc12 (stereo not given),.,-0.4
Cc1ccc(CSc2nccc(-c3cc(Cl)sc3Cl)n2)cc1,-0.16,.
CN1C(=O)C(C(N)=O)=C(N)C12CCCC2,.,1.4
Cc1cc(-n2c(C)cc(C(=O)CSc3ccc(S(=O)(=O)N(C)C)cn3)c2C)no1,.,0
CCc1nc2ccccc2c(N)c1C,16,-0.85
O=S(=O)(c1ccc2c(c1)CCO2)N1CCCN(c2ccc(C(F)(F)F)cn2)CC1,1.9,-0.75
COc1ccc(S(=O)(=O)N(CC(=O)NCCSCc2ccc(Cl)cc2)c2ccc(C)cc2)cc1OC,-0.26,.
O=C(Cn1nnc(N2CCCCC2)n1)c1ccc(Cl)cc1,0.8,.
CC1(C)CC(OC(=O)c2ccccc2C(=O)OC2CC(C)(C)NC(C)(C)C2)CC(C)(C)N1,i,-0.25
O=C(Cn1nnc(N2CCCC2)n1)c1ccc(Cl)cc1,0.12,-0.05
O=P(CN(Cc1cccs1)CC1CCCO1)(c1ccccc1)c1ccccc1 (stereo not given),71,-0.35
O=c1nc(Nc2ccccc2)[nH]c(=O)[nH]1,0.36,-0.7
CCc1ccc(C2C(C#N)=C(N)N(N(C)C)C3=C2C(=O)CCC3)cc1 (stereo not given),-0.92,-0.65
CN1CCC(N(C)C(=O)/C(=C/c2ccc(Cl)cc2)c2ccc(F)cc2)CC1,-0.72,-0.3
Cc1cccn2cc(-c3cccc(NS(=O)(=O)c4ccc(Cl)cc4)c3)nc12,0.11,0.2
O=C(Nc1ccc(Cl)cc1)Nc1nc(-c2cccc3ccccc23)cs1,2.9,.
CCCc1ccc(OCc2nc(-c3ccc(NC(=O)c4ccco4)cc3)no2)cc1,1.5,.
Cc1nn(-c2ccccc2)c2nc(-c3cccs3)cc(C(=O)OCC(=O)N3CCCC3)c12,.,-0.25
O=C(COC(=O)c1cccc2ccccc12)Nc1ccccc1Cl,2.2,-0.1
CN(C)S(=O)(=O)c1ccc(Nc2nc3ccccc3n3nnnc23)cc1,5.1,-2.5
O=C1COc2ccccc2N1Cc1ccc(OC(F)(F)F)cc1,.,0.25
CC1CCc2c(C(=O)Nc3nccs3)csc2C1 (stereo not given),0.68,0
Cc1cccc(NC(=O)CN2N=NC3C(=O)N(c4cccc(Cl)c4)C(=O)C32)c1C (stereo not given),0.095,-0.8
CSCCC(NC(=O)c1ccc(C(F)(F)F)cc1)C(=O)N/N=C/c1ccc(O)cc1O (stereo not given),-1.3,.
Cc1ccc(CN2C(=O)C(=O)N(Cc3ccc(Cl)cc3Cl)C2=O)cc1,-0.29,.
O=C(Oc1ccccc1)C1C2CCCCC21 (stereo not given),.,-0.15
CCOC(=N)c1ccc(C)c(Cl)c1,0.21,.
Cc1ccc2n1CCn1cc(-c3ccccc3)cc1-2,-0.17,1.9
Cc1ccccc1-c1nnc2sc(NC(=O)C(C)C)nn12,0.42,-1
O=C(Nc1ccc(S(=O)(=O)N(C2CC2)C2CCN(Cc3ccccc3)CC2)cc1)c1cc(Cl)nc(Cl)c1,-0.23,.
CC(C)(C)c1ccc(Oc2cc(O)c3c4c(onc24)-c2ccccc2C3=O)cc1,-0.11,.
CSc1nnc(C)c(=O)n1COC(=O)COc1ccccc1,.,0.6
CC1(C)C2CCC1(C)C(NC(=O)CC[N+](C)(C)Cc1ccccc1)C2 (stereo not given),0.62,0.3
C1=C[C@H]2c3cc(C45CC6CC(CC(C6)C4)C5)ccc3N[C@@H](c3cccnc3)[C@H]2C1,-0.19,.
O=C(O)c1sccc1-n1cccc1,-0.48,-0.8
O=C(O)CCc1ccc(-c2cccs2)n1-c1ccccc1C(F)(F)F,-0.46,-0.4
CCCN1CCC(N(C(=O)c2ccc(NC(=O)c3cc(C(F)(F)F)cc(C(F)(F)F)c3)cc2)C2CC2)CC1,-0.62,.
CCOc1ccc(Br)cc1C1C(C(=O)OC)=C(N)Oc2cc(N(C)C)ccc21 (stereo not given),1.8,0.45
NC(=O)Nc1nc2ccccc2[nH]c1=O,-0.19,-0.3
COC(=O)c1sccc1Oc1ccc(C(F)(F)F)cc1NC(=O)NS(=O)(=O)c1ccc(C)cc1,-0.48,.
CCOc1ccc(OCC)c(S(=O)(=O)N2CCN(c3ccccc3)CC2)c1,-1.3,3.5
Cc1cc(C)n(CCCC(=O)O)c(=O)n1,.,-0.8
COc1ccc(N(CC(=O)NCc2cccs2)S(=O)(=O)c2cccnc2)cc1,-1.1,-0.85
CC1CC(C)CN(S(=O)(=O)c2ccc(Sc3ccc(Br)cc3)c(C(=O)NCCN3CCOCC3)c2)C1 (stereo not given),-1.1,.
O=C(Nc1ccc(F)cc1)c1cc(N2CCN(c3ccc(F)cc3)CC2)nc2ccccc12,9.3,-0.15
COc1cc2c(cc1OC)C1C(C(=O)NC3CCCC(C)C3C)c3ccccc3C(=O)N1CC2 (stereo not given),8.9,0.15
Cc1ccnc(N2C(=O)OC(C)(C)C2(C)O)c1 (stereo not given),0.34,-0.4

# Remaining list, next part:
mol,Ba CapD inh,AID504770
N#Cc1ccc(NC(=O)NCCc2c[nH]c3ccccc23)cc1,-0.27,0
N#C/C(=C\N1CCC(C(F)(F)F)CC1)S(=O)(=O)c1ccccc1,0.095,-0.9
CCc1nc2ccccc2n1CCc1ccccc1,.,0.3
CSc1cc(-c2ccc(Cl)cc2)c(C(=O)Nc2ccc(Cl)cc2)s1,3,.
Cc1ncc(CNC(=O)N(CCCl)N=O)c(N)n1,.,0.25
Cc1nnc(Sc2nc(Sc3nnc(C)s3)nc(N3CCCCC3)n2)s1,.,0.2
NC(=O)Cc1ccccc1Br,0.38,-0.2
COc1cc(-c2nc3ccccc3c(=O)n2NC(=O)c2cc(Br)ccc2Cl)cc(OC)c1OC,-0.49,.
O=C1c2ccccc2C(=O)N1CCC12CC3CC(CC(C3)C1)C2,0.83,1.4
O=C(Cc1c(O)c2ccccc2oc1=O)c1cc2ccccc2o1,-0.02,0.4
O=C1CCSC(c2cccnc2)N1CCc1ccc(Cl)cc1 (stereo not given),-0.92,-0.85
CN1C(=O)C[n+]2ccccc2C1C(=O)Nc1ccccc1 (stereo not given),0.01,-0.2
Cc1cccc(N(C)C(=O)/C=C/C(=O)O)c1,-0.065,-0.4
O=C1CC(Nc2ccc(Cl)cc2)C(=O)N1c1ccc(Cl)cc1 (stereo not given),0.58,1.5
Ic1ccccc1/C=N/n1cnnc1,-0.86,-0.35
COC(=O)C1C(c2ccccc2)C(C(=O)N2CCOCC2)C1c1ccccc1 (stereo not given),.,1
c1ccc(-c2noc(C3CCC3)n2)nc1,-1.1,-0.35
O=C(N/C(=C\c1ccccc1)C(=O)N1CCN(CCO)CC1)c1ccccc1,-0.41,.
Cc1ccc(NC(=O)C(NC(=O)c2ccccc2)C(C)C)cc1 (stereo not given),0.29,0.35
CCN(CC)c1ccc(C(=O)N=c2sc3ccccc3n2C)cc1,.,-0.2
CCC1=NN(C(=O)c2cccc(Cl)c2)C(O)(c2ccc(Br)cc2)C1 (stereo not given),-0.095,.

# Assay outcomes deposited in PubChem BioAssay by ICCB-Longwood Screening Facility, Harvard Medical School.
